Sfp inh: qHTS Assay for Inhibitors of Bacillus subtilis Sfp phosphopantetheinyl transferase (PPTase) | 4'-phosphopantetheinyl transferase ffp (Bacillus subtilis), Q9F4F7 | Biochemical Sfp PPTase activity, qHTS | Potency, µM, inactives show max response, negative = inhibition, usual class: inhibitors | 310,000 tested, 3.5% active | AID 1490, 2009; active means well fitted inhibition curve with a large enough effect; inconclusive means small, poorly fitted or top-dose-only effect, or another doubt; inactive means no such curve, though single readings can be large or run the other way;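 further: the enzyme is Sfp with the accession as filed and its product quenches rhodamine fluorescence; potency means the concentration at half of the fitted maximal effect; 0% = enzyme reaction without inhibitor and -100% = no enzyme wells; top concentration of the series not given in the record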
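Fluorescence-quenching assay: 15 nM Sfp-PPTase preincubated 15 min at room temperature with compound, then 5 uM rhodamine-CoA and 12.5 uM BHQ-2-labelled YbbR peptide added. Fluorescence (ex 525/em 598 nm) read at start and after 30 min; difference gives rate.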
TRPV1 potentiator: HTS Assay for Compounds that Act as Potentiators of the Vanilloid Receptor 1; AID 540277, 2011; 320,000 tested, 0.02% active; Transient receptor potential cation channel subfamily V member 1 (Homo sapiens), Q8NER1; TRPV1-expressing cells, Fluo-8 calcium influx, capsaicin EC20 potentiation; host cell line not named in the record; control for the full effect not named in the record; potentiation, % at 8.33 µM; active means potentiation above 80%; inconclusive means 30% to 80%; inactive means below 30%; further: 0% is about no effect
Target sequence (Q8NER1 whole entry, looked up): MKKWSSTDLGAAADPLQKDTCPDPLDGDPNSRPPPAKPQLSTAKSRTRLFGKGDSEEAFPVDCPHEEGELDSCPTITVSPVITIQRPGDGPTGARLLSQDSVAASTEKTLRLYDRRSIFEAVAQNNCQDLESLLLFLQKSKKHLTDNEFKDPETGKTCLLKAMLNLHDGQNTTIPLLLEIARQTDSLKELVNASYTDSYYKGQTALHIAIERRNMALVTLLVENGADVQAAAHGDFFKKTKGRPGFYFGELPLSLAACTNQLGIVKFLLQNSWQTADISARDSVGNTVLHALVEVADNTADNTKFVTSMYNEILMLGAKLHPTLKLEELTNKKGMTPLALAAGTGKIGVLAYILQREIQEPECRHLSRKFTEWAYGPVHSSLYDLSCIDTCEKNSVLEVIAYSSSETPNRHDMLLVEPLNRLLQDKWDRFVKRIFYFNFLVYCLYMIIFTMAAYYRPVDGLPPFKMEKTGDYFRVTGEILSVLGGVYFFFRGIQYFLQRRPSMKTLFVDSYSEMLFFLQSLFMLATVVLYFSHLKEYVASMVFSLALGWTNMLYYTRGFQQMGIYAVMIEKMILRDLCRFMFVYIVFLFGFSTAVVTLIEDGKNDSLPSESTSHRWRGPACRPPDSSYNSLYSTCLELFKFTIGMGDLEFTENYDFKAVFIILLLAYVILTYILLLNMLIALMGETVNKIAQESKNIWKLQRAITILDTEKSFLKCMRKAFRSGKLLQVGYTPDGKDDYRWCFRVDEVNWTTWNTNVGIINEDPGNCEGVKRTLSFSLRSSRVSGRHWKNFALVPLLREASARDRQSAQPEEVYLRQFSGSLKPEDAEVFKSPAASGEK
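TRPV1-expressing cells were cultured overnight at 35.5C and loaded with Fluo-8 calcium dye for 40 to 90 min at room temperature. After a 10 s baseline, compound was added and calcium influx was read kinetically for 3 min (ex 480/em 520 nm).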
Menin MLL FP FL: qHTS Assay for Inhibitors Targeting the Menin-MLL Interaction in MLL Related Leukemias: Competition With Fluorescein Labeled MLL-derived Peptide; Fluorescence polarization, fluorescein-MLL peptide displacement from menin; FP activity change, % at 61.4 µM; 290,000 tested, under 10 active; inconclusive = falling polarisation curve, or a change in total fluorescence; inactive = total fluorescence flat and polarisation flat or rising; no compound was filed as active; the % refers to the polarisation; negative = inhibition;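 further: % of control where 0% means no effect; inhibitors lower the polarisation; unlabelled MLL peptide was the positive control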
gsp ag: qHTS for Agonist of gsp, the Etiologic Mutation Responsible for Fibrous Dysplasia/McCune-Albright Syndrome: qHTS | gsp mutant cells, cAMP HTRF, 30 min; control for the full effect not named in the record | Potency, µM (top dose mostly 76.9 µM), without a hit: at the highest dose activation (cAMP increase), most hits filed as activators | 340,000 tested, 0.13% active | AID 624287, 2012; active = well fitted activation curve with a large enough effect; inconclusive = small, poorly fitted or top-dose-only effect, or another doubt; inactive = no such curve, though single readings can be large or run the other way; cell line not stated here;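 further: phosphodiesterase inhibitor Ro 20-1724 added with compounds to block cAMP breakdown; potency means the concentration at half of the fitted maximal effect; nearly all actives have a fitted effect of over 60% in size; about a fifth of the inactives were tested at one dose only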
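Cells in DMEM/10% FBS with G418 were pretreated with compounds in DMSO plus […] (300 uM stock) for 30 min at 37C. cAMP was measured by HTRF (cAMP-d2 plus anti-cAMP antibody-K) after 30 min at room temperature.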
TRPML1 inh: qHTS for Inhibitors of the Human Mucolipin Transient Receptor Potential 1 (TRPML1) | AID 624415, 2012 | TRPML1-inducible cells, Ca2+ dye fluorescence, FDSS; hits give low values; inhibition of EC80 agonist-evoked calcium signal | 390,000 tested, 0.02% active | activity change, negative = inhibition, % (test concentration not listed) | Mucolipin-1 (Homo sapiens), Q9GZU1; in the data active means activity change below about -50%; inconclusive means about -30% to -50%; inactive means above about -30%;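 further: stimulus is agonist 54-4 at its EC80 concentration; on the % scale 0 is the no-effect control and ±100 the full control effect; compound concentration not given in the record; the text of the record puts the active cut at -80%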
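Tet-induced TRPML1-DL cells loaded with Ca8 no-wash calcium dye were read kinetically on FDSS. Compound addition was followed by EC80 agonist 54-4 (4 uM final); inhibition was read over 110 s.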
gsp antag: qHTS for Antagonists of gsp, the Etiologic Mutation Responsible for Fibrous Dysplasia/McCune-Albright Syndrome: qHTS; gsp-mutant cells, cAMP HTRF, 30 min; control for the full effect not named in the record; Potency, µM (highest dose often 76.9 µM), without a hit: at the highest dose activity change, negative = inhibition, hits mostly inhibitors; 340,000 tested, 0.4% active; AID 624288, 2012; active = falling curve of any shape with a large fitted effect; inconclusive = falling curve, mostly with a smaller effect; inactive = flat or rising curve; cell line not stated here;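 further: intracellular cAMP measured with PDE inhibitor Ro 20-1724 present during compound exposure; potency means the concentration at half of the fitted maximal effect; on the % scale 0 is the no-effect control and ±100 the full control effect; nearly all actives have a fitted effect of over 65% in size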
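HTRF cAMP read-out (cAMP-d2 plus anti-cAMP antibody-K in lysis buffer, 30 min RT). Before lysis, cells are exposed to compounds with […] for 30 min at 37C in DPBS containing Ca/Mg, BSA and Tween 20.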
ClpP mod: qHTS Assay for Activators of ClpP | ATP-dependent Clp protease proteolytic subunit (Bacillus subtilis (strain 168)), P80244 | purified B. subtilis ClpP, FRET peptide cleavage, 20 min | Potency, µM (doses to about 57.5 µM), for the others: at the highest dose activity change, negative = active | 340,000 tested, 1.9% active | AID 651965, 2013; active = well fitted falling curve with a large enough effect; inconclusive = small, poorly fitted or top-dose-only effect; inactive = no such curve, though single readings can be large or run the other way; further: potency means the concentration at half of the fitted maximal effect; the source files actives as falling curves though it sought activators and does not explain the sign; nearly all actives have a fitted effect of over 65% in size; many hits overshoot -100%
Target sequence (P80244 whole entry, looked up): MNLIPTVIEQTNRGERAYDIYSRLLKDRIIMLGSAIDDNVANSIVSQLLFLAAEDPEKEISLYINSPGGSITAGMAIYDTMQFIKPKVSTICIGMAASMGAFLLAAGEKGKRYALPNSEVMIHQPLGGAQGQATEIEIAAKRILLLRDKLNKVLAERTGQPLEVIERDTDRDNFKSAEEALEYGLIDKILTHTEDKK
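Buffer: 100 mM Tris/HCl pH8, 100 mM KCl, 0.05% low protease BSA, 2.5% glycerol, 0.01% Tween-20. ClpP 10 microg/mL final; 20 min RT; delta FRET normalized to ADEP and DMSO controls.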
An asterisk follows results filed as active; ? = inconclusive; . = not tested or not shown; & = joins results of further samples; [ ] = dose if it differs, or a comment. Compounds were not picked by outcome, and some 4.9% of all compounds hit somewhere here.

SMILES	Sfp inh	TRPV1 potentiator	Menin MLL FP FL	gsp ag	TRPML1 inh	gsp antag	ClpP mod
O=C(CN1C(=O)/C(=C/c2cccc(Cl)c2)SC1=S)NC1C=CS(=O)(=O)C1 (configuration not stated)	-27%	7	0.9	11%	40	-4%	.
CC/C(=N\NC(=O)c1ccoc1C)c1ccc(C)o1	1%	-26	-8.7	-1%[15.4 µM]	3	4%	-0.3%
O=C(Nc1ccccc1)N1CCC(C(=O)N2CCN(c3ccccc3F)CC2)CC1	1%	-9	-0.5	16%	-19	-2%	.
CCOC(=O)c1ccc(NC(=O)CC2NCCNC2=O)cc1 (configuration not stated)	5%	-9	5.0	15%	-14&-9	14%	2.2%&-1.0%
CSc1ccccc1C(=O)NCc1ccc(F)cc1	21%	-7	-2.3	4%	12	-6%	-2.0%
CCc1cc(C(c2ccccc2OC)N2CCOCC2)c(NC(=O)c2ccccc2)s1 (configuration not stated)	8%	-9	2.3	0%	4	-8%	?
CC(C)c1nc(N2CCOCC2)c(C#N)c2c1CCCC2	-2%	-1	2.5	-22%	-7	?	32µM*
CCOC(=O)c1oc2c(C)c(O)ccc2c(=O)c1-c1nncn1-c1ccccc1	13%	0	2.7	-17%	4	1%	-1.6%
C#Cc1ccc([C@@H]2C=C(C(=O)N3CCOCC3)O[C@H](OCCCCO)C2)cc1	-14%	-10	1.3	.	40	4%	-3.4%
CCC(C)Sc1ccc([C@@H]2[C@@H]3C(=O)N(C)C(=O)[C@@H]3[C@]3(C(=O)OC)CCCCN23)cc1 (some centres not stated)	.	-18	.	.	15	-17%	-0.8%
COc1ccc(CCNC(=O)CSc2nnc(CNC(=O)c3ccco3)o2)cc1OC	-3%	-8	-1.0	-33%[inhibitor]	23	0%	2.6%
CCN1CCN(C(=O)C(=O)c2cn(CC(=O)N3CCCC3)c3ccccc23)CC1	6%	8	.	24%[15.4 µM]	-10	-5%	-1.5%
C=CCn1c(=S)[nH]c2cc(C(=O)N3CCN(c4ccccc4OC)CC3)ccc2c1=O	.	6	.	1%	-5	-10%	-0.4%
CN(C)c1ccc(/C=N/NC(=O)C(=O)N2CCCCCC2)cc1	17%	-5	0.2	19%	23	-3%	.
N#CC1=C(SCc2ccccc2)NC(=O)CC1c1ccccc1 (configuration not stated)	-6%	24	-1.0	29%	-2	-5%	-0.8%
O=C(N/N=C/c1ccc([N+](=O)[O-])s1)C(O)c1ccccc1 (configuration not stated)	?	-6	0.7	?	-11	0%	-0.4%
CCOc1ccccc1OCCC(=O)Nc1ccc(F)c(Cl)c1	2%	-3	1.1	0%	11	8%	7.3%
CCC/C(=N\NC(=O)c1ccccc1C)c1ccccc1	27%	-7	-1.5	5%	18	11%	0.9%
Cc1cc(C)cc(NC(=O)C2CCN(S(C)(=O)=O)CC2)c1	9%	-30	1.4	-8%	21	2%	.
CN(Cc1ccc(F)cc1)C(=O)CNC(=O)C1CCCCC1	8%	?	.	11%	4	6%	0.4%
CCn1c(COc2cccc(C)c2C)nnc1SCC(=O)Nc1cc(C)on1	-2%	-6	-1.7	3%[15.4 µM]	7	0%	.
O=C(CCn1cncn1)N1CCN(S(=O)(=O)c2ccc(Cl)cc2)CC1	-2%	-3	-4.8	7%[15.4 µM]	6	-12%	-1.3%
CCN(CC)c1ccc(S(=O)(=O)N(CC)CC)cc1NC(=O)C1CCCC1	16%	-12	4.7	19%	6	-20%	.
Cn1cc(C(=O)N/N=C/C2=C(N3CCOCC3)C(=C\c3ccccc3)/CC2)ccc1=O	-6%	-3	5.7	-21%	-23	-6%	-12%
CCN(CC)c1ccc(/C=N/Nc2nn[nH]n2)cc1	40µM*	0	5.8	-12%	-17	?	-29%
O=C(Nc1ccc(Cl)c(Cl)c1)OCc1cncs1	-2%	-10	-0.1	-45%[inhibitor]	34	-10%	1.6%
COc1cc(N=Nc2ccccc2C(=O)O)ccc1O	-25%	7	34[activator]	-10%	-3	-16%	-0.5%
COc1ccc(C(CC(=O)N2CCCC2)c2c(OC)cc(OC)c3ccc(=O)oc23)cc1 (configuration not stated)	15%&4%	21	-12&-2.9	.	-12&-12	3%	3.9%
O=C(COc1ccccc1Cl)Nc1ccc2oc(=O)ccc2c1	5%	1	-4.1	1%[15.4 µM]	-6	5%	.
CN(CC(=O)Nc1ccccc1Cl)C(=O)CCSc1ccc(F)cc1	.	?	.	4%	-8	-8%	1.1%
Cc1[nH]n(-c2ccc(Cl)cc2)c(=O)c1C(=O)c1ccccc1	3%	-1	-3.6	-19%[15.4 µM]	12	-33%	.
CCCCn1c(N)c(N(CC(C)C)C(=O)c2cccc(S(=O)(=O)N(C)c3ccccc3)c2)c(=O)[nH]c1=O	.	12	.	3%	12	3%	0.9%
COc1ccc(CC(=O)OCC(=O)NCCNC(=O)COC(=O)Cc2ccc(OC)cc2)cc1	.	15	.	6%[15.4 µM]	5	1%	.
C#CCN(C[C@@H]1[C@@H](OC(=O)NCC2CCCCC2)[C@@H](OC(=O)NCC2CCCCC2)Cn2c(=O)ccc(=O)n21)S(=O)(=O)c1ccc(C)cc1	.	.	.	26%	2	.	-1.8%
Cc1cccc(N2CCN(c3ccc4cc(S(=O)(=O)N5CCCCC5)ccc4n3)CC2)c1C	5%	7	.	2%	6	4%	-14%
CN(CC(=O)Nc1ccc(F)cc1)C(=O)c1ccncc1	1%	-2	.	24%	0	-3%	-1.2%
COc1cccc(S(=O)(=O)Nc2ccc3c(c2)OCCO3)c1	15%	-5	-2.5	12%[15.4 µM]	-2	4%	14µM*
COc1cccc(C(=O)C2CCCN(C(=O)CCc3scnc3C)C2)c1 (configuration not stated)	-6%	-3	-0.1	12%[15.4 µM]	-4	-7%	.
O=C(OCC(=O)N1CCCc2ccccc21)c1cc(S(=O)(=O)N2CCOCC2)ccc1Cl	.	1	.	-11%[15.4 µM]	8	-10%	.
CCCCN(Cc1ccco1)S(=O)(=O)c1csc(C(N)=O)c1	3%	0	6.3	-18%	-3	3%	-0.9%
Cc1cc(=O)oc2cc(OCC3CC(c4ccccc4Cl)=NO3)ccc12 (configuration not stated)	-6%	-2	7.1	24%	8	21%	28µM*
O=C(CNC(=O)N1CC(=O)Nc2ccccc21)Nc1ccccc1	26%	2	.	-26%	-5	6%	3.0%
CCOC(=O)C1CCN(C(=O)c2sc3nc(-c4ccccc4)cn3c2C)CC1	1%	5	2.7	?	2	2%	16%
COc1cccc(/C=N/n2c(C)nc3ccccc3c2=O)c1O	8%	-16	3.8	5%	7	6%	-2.6%
Cc1ncc(CO)n1Cc1ccc(Cl)cc1	.	.	.	5%	-8	.	-1.3%
Clc1ccc2nc(C3CCN(Cc4nnnn4C4CCCCC4)CC3)[nH]c2c1	4%	-7	-4.3	6%	17	-30%	-3.0%
Cc1cc(=O)[nH]c(SCC(=O)NC2CCCCC2)n1	10%	12	.	20%	28	4%	.
C[C@H](NC(=O)c1[nH]cnc1C(=O)Nc1ccccc1)c1ccccc1	.	-5	.	.	22	-6%	-0.7%
COc1cc2c(cc1OC)C(c1ccccc1)N(C(=O)c1ccco1)CC2 (configuration not stated)	-21%	-6	2.0	0%	-6	2%	2.1%
COc1ccc(C(=O)NCCCNC(=O)c2ccccn2)cc1Br	22%	-5	-4.1	-46%[inhibitor]	-3	-2%	0.1%
O=C(NCCCN1CCOCC1)c1cc2ccccc2oc1=O	7%	-2	6.6	?	-7	0%	28µM*
O=C(NC(=S)N(Cc1ccccc1)Cc1ccccc1)c1ccccc1F	17%	-4	2.9	1%	-6	?	1.6%
CC(C)(NO)/C(=N/O)c1ccc(Br)cc1	?	-11	-0.4	7%	2	-5%	0.1%
CCCn1c2ccc(/C(C)=N\O)cc2c2cc(/C(C)=N/O)ccc21	-2%	-2	0.9	-29%	1	-26%	?
CCOC(=O)N1CCN(C(=O)C2CCN(Cc3ccc(OC)cc3OC)CC2)CC1	-11%	-8	-1.0	3%	-6	-16%	-20%
O=C(c1ccc2ccccc2n1)N1CCN(S(=O)(=O)c2ccccc2)CC1	.	.	.	5%	13	4%	0.4%
CC[C@@H](C)[C@@H]1CN([C@@H](CN2CCC[C@H]2CN2C(N)=NC[C@H]2CC(C)C)C(C)C)C(=N)N1CCc1ccc(Cl)c(Cl)c1	.	.	.	.	17	3%	-0.6%
COc1ccc(NC(=O)c2ccccc2SC)cc1OC	8%	8	?	-32%[inhibitor]	10	6%	-0.1%
CCCNS(=O)(=O)c1ccc(CCC(=O)N2CCN(c3ccc(F)cc3)CC2)cc1	-8%	-7	-0.7	-22%	19	-10%	-1.6%
O=C(NC1CCCCCC1)C1C2C=CC3(CN(Cc4cccnc4)C(=O)C13)O2 (configuration not stated)	9%	.	-0.7	-37%[inhibitor]	-3	11%	-0.2%
Remaining list, next part
SMILES	Sfp inh	TRPV1 potentiator	Menin MLL FP FL	gsp ag	TRPML1 inh	gsp antag	ClpP mod
O=C(NCCCc1ccccc1)c1ccc([N+](=O)[O-])cc1Cl	11%	-29	-0.7	-26%	3	-3%	.
CCC(NS(=O)(=O)c1ccc2c(c1)Cc1cc(S(=O)(=O)NC(CC)C(=O)O)ccc1-2)C(=O)O (configuration not stated)	9%	2	3.2	-17%	3	-1%	0.5%
O=S(=O)(Cc1ccccc1)NCC1CCCO1 (configuration not stated)	1%	17	0.5	-67%[inhibitor]	33	10%	-4.5%
Cc1ccc(S(=O)(=O)NC2=C(N3CCN(Cc4ccccc4)CC3)C(=O)c3ccccc3C2=O)cc1	4%	2	2.4	7%[15.4 µM]	7	-4%	-1.7%
